Source: PubChem (National Center for Advancing Translational Sciences (NCATS))
StopGo FLuc: Primary qHTS Assay for Foot and Mouth Disease Virus Antivirals against NCGC Sytravon and CBC Compound Libraries: Firefly Luciferase Signal | HEK cells with a luciferase reporter of 2A StopGo recoding | Potency, µM (doses to about 57.5 µM), for the others: at the top dose signal change, negative = less light | 120,000 compounds, 0.23% hits | AID 1745856, 2022; active = well fitted falling curve with a large enough effect; inconclusive = small, poorly fitted or top-dose-only effect; inactive = no such curve, though single readings can be large or run the other way; note: nearly all actives have a fitted effect of over 60% in size; overnight with compound
StopGo RLuc: Primary qHTS Assay for Foot and Mouth Disease Virus Antivirals against NCGC Sytravon and CBC Compound Libraries: Renilla Luciferase Signal; HEK cells with a luciferase reporter of 2A StopGo recoding; Potency, µM (doses to about 57.5 µM), inactives show top-dose signal change, negative = less light; 120,000 compounds, 0.32% hits; active means well fitted falling curve with a large enough effect; inconclusive means small, poorly fitted or top-dose-only effect; inactive means no such curve, though single readings can be large or run the other way; note: nearly all actives have a fitted effect of over 55% in size; overnight with compound
* = called active by the depositor; ? = inconclusive; [ ] = remark or other dose. % is set by controls: 0 for no effect and ±100 for the full control effect; potency is the fitted concentration of half-maximal effect. These rows are one share of the data. The share of hits here may be higher or lower than overall.

compound | StopGo RLuc | StopGo FLuc
N#Cc1ccccc1NC(=O)c1ccccc1Oc1ccccc1 | 21.3% | -0.4%
CCc1cccc(CC)c1NC(=O)c1cc(S(=O)(=O)N2CCc3ccccc32)cn1C | 4.5% | -6.1%
CC1(C)CC(=O)C2=C(C1)OC(N)=C(C#N)C2c1ccc(-c2ccc(Br)cc2)o1 (centres undefined) | -7.8% | 15.6%
Cc1ccc(-n2nnc(-c3nc(-c4ccccc4Cl)no3)c2C)cc1F | -13.5% | 18.7%
CC(C)N(C(=O)CC(C#N)(CC(=O)N(C(C)C)C(C)C)c1nc2ccccc2s1)C(C)C | 2.9% | 6.1%
O=C(NCCC(=O)N1CCCC1)c1cc(=O)[nH]c2ccccc12 | 0.3% | -5.8%
Cn1c(SCC(=O)Nc2sccc2C#N)nnc1-c1cccc(Cl)c1 | -0.2% | -1.4%
Cc1cccc(CNC(=O)C2CCN(c3nnc(-n4c(C)ccc4C)s3)CC2)c1 | -3.4% | -3.7%
COc1cccc(CNC(=O)c2ccc(-c3nc(CS(=O)c4ccccc4)c(C)o3)cc2)c1 (centres undefined) | 23.2% | -9.5%
Cn1cc(C(=O)N2CCN(S(=O)(=O)c3ccc(F)cc3)CC2)c2ccccc21 | -0.1% | -12.1%
Cc1ccccc1-n1cnnc1SCCC(=O)Nc1ccc(S(=O)(=O)N(C)C)cc1 | -1.1% | -12.0%
COc1ccccc1CNC(=O)C1CCCN(S(=O)(=O)c2cc(-c3noc(C)n3)ccc2C)C1 (centres undefined) | 34.1%[activator] | 35.1%[activator]
COc1ccccc1CNC(=O)C(=O)NCC(c1cccs1)S(=O)(=O)c1ccccc1 (centres undefined) | -11.8% | 0.0%
CCOc1ccc(-c2cc(OC(=O)c3ccccc3)c3c(C)oc(C)c3c(=O)c2)cc1 | -4.1% | 13.6%
CCc1cccc(C)c1NC(=O)Cc1c[nH]c2ccccc12 | 6.5% | 5.4%
O=C(COc1ccc(-n2cnnn2)cc1)N1CCN(S(=O)(=O)c2ccc3c(c2)CCC3)CC1 | 5.7% | 13.0%
C=CCOc1nc2c(c(=O)n(C)c(=O)n2C)n1Cc1ccccc1 | 6.0% | 12.7%
Cc1ccc(CN2CCC(CNC(=O)c3c(C)oc4ncnc(N5CCOCC5)c34)C2)cc1 (centres undefined) | -13.4% | -14.5%
COc1cccc(CNC(=O)CCc2c(C)nn(-c3ccc(N4CCCC4)nn3)c2C)c1 | -7.4% | -11.9%
O=S(=O)(c1ccc(N2CCN(Cc3ccccc3)CC2)nc1)N1CCCCC1 | -3.3% | 0.5%
COC(=O)c1ccc2oc(=O)c(S(=O)(=O)c3ccc(F)cc3)cc2c1 | -12.0% | -7.0%
O=C(OC1CCOC1=O)c1cccs1 (centres undefined) | -13.6% | -6.2%
COc1ccc(OC)c(NC(=O)CSc2cn[nH]n2)c1 | -9.4% | -7.0%
COC(=O)c1ccc(CN(C)C(C)C(=O)Nc2cc(C)ccc2C)cc1 (centres undefined) | 9.2% | -1.7%
COc1ccc(-c2c(-c3ccc(C)c(C)c3)[nH]c3c2c(=O)[nH]c(=O)n3C)cc1 | 2.6% | 2.1%
COC(=O)C1CN(C2CCCC2)CCS(=O)(=O)N1Cc1ccc(C(F)(F)F)cc1 (centres undefined) | -18.7% | 3.7%
Cc1cc(=O)c(C(=O)N2CCN(S(=O)(=O)c3ccc4c(c3)CCC4)CC2)nn1-c1ccccc1F | 51.7%[activator] | -2.5%
COc1ccc(-c2nnc3sc(NC(=O)C4CCCCC4)nn23)cc1OC | -9.4% | -3.5%
O=C(c1ccc(Cl)cc1Cl)N(CCS(=O)(=O)N1CCCCC1)Cc1ccncc1 | 14.2% | 0.1%
COc1ccc2cc(CNc3ccccc3)c(=O)n(CC(=O)Nc3ccc(C)cc3C)c2c1 | 0.5% | -13.9%
Cc1ccc(C)c(/C=N/Nc2cc(C(F)(F)F)ccc2Cl)c1 | -1.2% | -2.9%
Cc1ccc(C(=O)OCc2nc3ccccc3o2)cc1 | -2.1% | 20.6%
Cc1ccc2nc(SCC(=O)Nc3ccccc3C(=O)Nc3ccccc3)[nH]c2c1 | ? | 30.1%[activator]
Cc1cc2ccccc2n1CCNC(=O)c1cc(C(F)(F)F)cc(C(F)(F)F)c1 | -0.2% | 4.6%
CCc1ccc2oc(=O)cc(CN3CCN(CC)CC3)c2c1 | -11.3% | -0.2%
COc1ccc(CNC(=O)CN(c2cc(C)cc(C)c2)S(=O)(=O)c2c(C)[nH]c(=O)[nH]c2=O)cc1 | -15.1% | -14.0%
CCOC(=O)c1ccc2ncc(C(=O)OCC)c(NCCCOC(=O)c3cccnc3)c2c1 | 6.9% | 6.7%
COC(=O)C(C)Sc1nnc(Nc2ccccc2F)s1 (centres undefined) | -0.6% | 52.5%[activator]
CCC(C)C(=O)Nc1ccc(-c2nc3ccccc3o2)cc1 (centres undefined) | 5.3% | 95.1%[activator]
Cc1ccccc1OCCSc1nc2ccc(NC(=O)c3ccccc3)cc2s1 | -11.6% | 0.0%
Cc1ccc(Nc2c(-c3ccccn3)nc3ccc(Br)cn23)cc1 | 3.0% | -12.7%
CCOC(=O)C1CCN(C(=O)C2CCN(C3=NS(=O)(=O)C(c4ccc(C)cc4)=C3CC)CC2)CC1 | 3.7% | -1.6%
O=C(NCc1ccccc1)c1ccc(NC(=O)N2CC3CCCN3c3ccccc32)cc1 (centres undefined) | 3.1% | -0.6%
CCCC(=O)N1N=C(c2ccc(OC)cc2)CC1c1ccc2nccnc2c1 (centres undefined) | -13.5% | 32.5%[activator]
O=C(Nc1ccncc1)c1ccc(COc2cc(Cl)ccc2Cl)cc1 | ? | ?
CN(C)CCCN1CCC(=O)C2CCCCC21 (centres undefined) | 1.3% | -1.8%
COc1ccc(OCc2ccc(-c3nc(C#N)c(N4CCN(c5cccc(Cl)c5)CC4)o3)o2)cc1 | -13.7% | -10.0%
CCOc1ccc(C2CC(c3ccccc3NS(=O)(=O)c3ccccc3)=NN2C(=O)CC)cc1 (centres undefined) | -4.9% | 18.3%
CC(C(=O)O)c1ccc(/C=C2\CCCCC2=O)cc1 (centres undefined) | -3.1% | 78.7%[activator]
COc1cc(OC)c(NC(=O)Cn2nc(-c3cc(C)ccc3C)ccc2=O)cc1Cl | 3.1% | 11.8%
CC1CCN(c2oc(-c3cccs3)nc2S(=O)(=O)c2ccccc2)CC1 | -9.5% | -7.5%
CCCCCn1nc(C(=O)Nc2nc(-c3ccccn3)cs2)c2ccccc2c1=O | -6.0% | -1.7%
Cc1cccc(Nc2nc(-c3ccc([N+](=O)[O-])cc3)cs2)c1 | ? | 1.8%
Cc1ccc(NC(=O)C2CCCN(S(=O)(=O)c3c(C)nn(C)c3C)C2)c(C)c1 (centres undefined) | 1.1% | 8.7%
COc1ccc(C(C)(C)C)cc1-c1csc(N)n1 | 5.1% | -2.6%
O=[N+]([O-])c1ccc(F)c2ncccc12 | -11.9% | 12.7%
Cc1cccc(N2CCN(C(c3ccccc3)c3nnc(-c4ccccc4Cl)o3)CC2)c1C (centres undefined) | -2.2% | -3.3%
Cc1ccc2nc(N3CCN(c4cccc(C)c4C)CC3)c3nnnn3c2c1 | 9.4% | 1.0%
O=C(Nc1ccc(F)cc1)c1ccc(S(=O)(=O)C2CCS(=O)(=O)C2)cc1 (centres undefined) | -5.5% | 9.1%
CCn1c(CNC(=O)c2ccc(OC)cc2)nnc1SCC(=O)Nc1cccc(C)c1C | 0.0% | 14.0%

(cont.)
compound | StopGo RLuc | StopGo FLuc
CCC1CCc2nc3ccc(Cl)cc3c(-c3ccccc3F)c2C1 (centres undefined) | -3.6% | 2.9%
CCc1ccc2ncc(C(=O)c3ccc(C)c(C)c3)c(N3CCC(C(N)=O)CC3)c2c1 | 1.7% | 10.5%
CC(=O)c1ccc(N2CCN(C(=O)CCCCn3c(=O)[nH]c4ccsc4c3=O)CC2)cc1 | -3.7% | -14.7%
COc1cccc(C(=O)NCc2ccc3c(c2)CCN3C(=O)c2ccncc2)c1 | -15.7% | 0.0%
Cc1c(CCC(=O)NC2CC(C)(C)NC(C)(C)C2)c(=O)oc2cc(O)ccc12 | 3.0% | 4.3%
O=C(Nc1cccc(S(=O)(=O)NC2CC2)c1)c1cccc2cccnc12 | 197.3%[activator] | -0.3%
COc1cccc(CNC(=O)Cn2ncc3c4ccccc4n(C)c3c2=O)c1 | -0.7% | -4.0%
Cc1nc2c3ccccc3ccc2c2ccccc12 | 3.0% | 248.5%[activator]
O=C(NCC(O)c1ccccc1C(F)(F)F)c1cnccn1 (centres undefined) | -0.1% | 0.0%
CC(C)CNC(=O)COc1ncnc2ccc(Br)cc12 | -10.5% | 5.1%
COC(=O)c1ccccc1NC(=O)C1(c2cccs2)CCOCC1 | 12.6% | -9.2%
CCOCCCn1c(=N)c(C(=O)NC2CCCCC2)cc2c(=O)n3ccccc3nc21 | 2.7% | -7.5%
COc1ccc(NC(=O)CCCn2nc(C)c3sc4ccccc4c3c2=O)cc1 | -1.7% | -9.4%
Cc1cc(NC(=O)CSc2nnnn2-c2cccc(C)c2C)n(-c2ccccc2)n1 | 9.9% | 2.5%
CCOC(=O)c1cc(OC(=O)c2cccc(Cl)c2)n(-c2ccccc2)n1 | -14.4% | -22.3%
COc1ccc(Br)cc1CNC(=O)CSc1n[nH]c(-c2ccccc2)n1 | ? | ?
CCOC(=O)N1CCC(NC(=O)CS(=O)Cc2nc(-c3ccccc3F)oc2C)CC1 (centres undefined) | -0.6% | 9.9%
c1ccc(-c2ccc(CNCc3ccncc3)o2)cc1 | ? | -7.4%
CC(=O)NC(C)(C)Cc1ccc(O)c(Br)c1 | -1.1% | 4.1%
Cc1cc(C)c2oc(C(=O)Nc3nnc(C(C)C)s3)cc(=O)c2c1 | -8.7% | -10.2%
CCn1cc(S(=O)(=O)N2CCN(c3ccccc3OC)CC2)cn1 | -3.8% | -3.8%
CCOc1ccc(-c2nnc(SCC(=O)NCc3ccc(Cl)cc3)o2)cc1 | 16.9% | 12.5%
Cc1ccccc1COC(=O)c1cnccn1 | 1.2% | -2.7%
CCN(C(=O)CSc1nc2ccc(OC)cc2[nH]1)C1CCS(=O)(=O)C1 (centres undefined) | -15.4% | -4.6%
CCOc1ccc(NC(=O)CCNS(=O)(=O)c2ccc3c(c2)oc(=O)n3C)cc1 | 36.8%[activator] | -15.0%
CCCn1nc(C(=O)OC(C)C(=O)NCc2ccco2)c2ccccc2c1=O (centres undefined) | 1.8% | -6.5%
Nc1ccc(NS(=O)(=O)c2cccc(Cl)c2Cl)cc1[N+](=O)[O-] | 318.8%[activator] | 7.3%
CCN1CCN(S(=O)(=O)c2ccc(NC(=O)c3nc(-c4ccccc4)oc3C)cc2)CC1 | 0.2% | 11.3%
COc1ccc2[nH]cc(CCNCc3ccc(OC)c(OC)c3)c2c1 | -4.0% | 5.5%
O=C(Nc1ccc(S(=O)(=O)N(Cc2ccccc2)c2ccccc2)cc1)c1ccc(F)cc1 | -1.0% | -15.8%
CC1c2cccn2-c2ccccc2CN1C(=O)Nc1ccc(F)cc1F (centres undefined) | -2.6% | -15.4%
CCCCC(NS(=O)(=O)Cc1ccccc1)C(=O)O (centres undefined) | 5.3% | 3.2%
COc1cccc(-c2c(NC(=O)c3ccco3)oc3ccc(Cl)cc3c2=O)c1 | 12.5% | 43.4%[activator]
CC(C)(C)C(=O)Nc1cccc(-c2cn3cccnc3n2)c1 | -11.2% | 15.3%
Cc1cc2oc(C(=O)Nc3cccc(Cl)c3)cc(=O)c2cc1C | -16.9% | 2.1%
CCCOC1(C(F)(F)F)NC(=O)N(c2ccc(Cl)cc2)C1=O (centres undefined) | 16.4% | 5.4%
O=C(CCc1ccsc1)NCC1CCCO1 (centres undefined) | 13.1% | ?
CCc1cccc(-n2c(SCc3nc4ccccc4o3)nnc2N2CCOCC2)c1 | 17.8% | 30.7%[activator]
Cc1cc(Cl)ccc1NCC(=O)NC1(C#N)CCCCC1 | 175.3%[activator] | 2.0%
CC(SC(C)c1ccccc1)C(=O)Nc1ccccc1F (centres undefined) | 5.6% | 0.0%
O=C(Cn1ccc2ccc(Cl)cc21)N1CCOCC1 | -4.2% | 1.7%
CCOc1ccc(CC(=O)NCc2ccc3c(c2)CCN3C(C)=O)cc1OCC | 9.1% | 15.4%
